Assay outcomes from PubChem BioAssay.
Sa RN4220 lethal: growth inhibition of S. aureus RN4220, primary screen, OD600 | 16 h | inhibition, % (concentration not given with the values) | 330,000 compounds, 0.33% hits | AID 1259311, 2017;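 active means z-score of -3 or lower and OD600 up to 0.18 on both plates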;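 further: plate controls were untreated cells for no effect and reference antibiotic for full effect; stock transfer was 100 nL into about 80 µL; one replicate is shown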
Mtb hypoxia inh: PubChem AID 1159583; 300,000 compounds, 0.1% hits; fluorescence inhibition, % (test concentration not listed); M. tuberculosis hypoxia-regulated fluorescent reporter, fluorescence;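 active means 35 to 45% if threefold the growth effect, above 45% if 1.5-fold the growth effect; inactive means the rest, general growth blockers included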;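 further: wells of about 50 µL received 100 nL stock; 0% = vehicle wells and 100% = reference inhibitor wells; whole bacteria with a GFP reporter of the hypoxia response; strong numbers were not always called active; many hits fall short of the cut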
Bead autofluor: counter-screen for toxin protease inhibitors: compound fluorescence; compound autofluorescence counterscreen, microsphere flow cytometry; stronger effect = higher value; fluorescence intensity (no concentration beside the values); 360,000 compounds, 3.1% hits;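 active means at least 3 SD above the mean of all compounds, about 16000 in these data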;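 further: 100 nL of 1 mM stock went into each well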
PrP UTR inh: inhibition of PrP 5' UTR reporter expression. AID 488862, 2010. inhibition, % (concentration not given with the values). 340,000 compounds, 0.35% hits. cell-based PrP 5' UTR mRNA reporter, plate reader;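 active means every replicate at 50% or more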;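 further: 0 = median of the neutral control wells; tested in H4 reporter cells; numbers are from one replicate; inactives centre near -14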
Sa ugtP lethal: growth inhibition of ugtP-null S. aureus, primary screen, RN4220 ugtP deletion, OD600. growth inhibition, % (test concentration not listed). 16 h; some inactives read as strong as hits. 330,000 compounds, 0.54% hits. AID 1259309, 2017;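 active means z-score under -3 and OD600 up to 0.15 on both plates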;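 further: plate controls were untreated wells for no effect and antibiotic for full effect; wells of about 80 µL received 100 nL stock; the first replicate is given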
BJeLR viability: MLPCN primary cell-based screen for lethality selective to Ras in HRASV12 cells | AID 1554, 2009 | BJeLR (HRASV12) viability, CellTiter-Glo ATP luminescence, 48 h; reference of the scale not given here | inhibition, % (no concentration beside the values) | 300,000 compounds, 0.17% hits;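 active means replicate mean above 50%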;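 further: 50 nL library stock added to about 25 µL; numbers are from one replicate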
Mtb hypoxia inh growth: second read-out of Mtb hypoxia inh, no call of its own (marks repeat the call); growth inhibition, %; measured here: M. tuberculosis growth (absorbance);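 0% = vehicle and 100% = reference antibiotic; read after six days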
* marks the source's active call; other numbers are inactive results; . = not tested or not shown.

Every second line gives: Sa RN4220 lethal	Mtb hypoxia inh	Mtb hypoxia inh growth	Bead autofluor	PrP UTR inh	Sa ugtP lethal	BJeLR viability
> CC(=O)/C(=N\Nc1ccccc1)Oc1ccc([N+](=O)[O-])cc1
    .	.	.	4453	-9.1	.	0.9
> O=C(O)CCC(=NNC(=O)c1ccncc1)c1ccccc1
    -2.7	22.9	9.9	.	.	0.8	.
> CC(=O)Nc1ccc(NC(=O)C2CC(=O)N(c3ccccc3Cl)C2)cc1 (configuration not stated)
    -0.3	-0.8	9.4	4354	-39.6	-1.1	-20.0
> CCN(CC)C(=O)c1ccc(NC(=O)c2cc(S(=O)(=O)N3CCCCCC3)ccc2OC)cc1
    1.2	5.3	11.8	.	-22.1	4.8	4.2
> O=c1[nH]c(O)c(C=NC2CCN(Cc3ccccc3)CC2)c(=O)[nH]1
    7.8	12.8	14.2	2346	-7.9	4.3	1.5
> Cc1ccc(-c2nn(Cc3ccccc3)cc2C=O)cc1
    3.2	3.9	2.2	2618	-37.5	10.9	-5.5
> CN(C)CCNC(=O)C(=O)NCC1OCCCN1S(=O)(=O)c1cccs1 (configuration not stated)
    2.6	1.7	-0.7	2193	-22.1	13.9	6.1
> Cc1ccc2c(c1)C(c1ccccc1)N(C(=O)C(C)C)CC(=O)N2 (configuration not stated)
    4.3	4.4	6.1	5919	-12.0	3.6	0.5
> Cc1ccc(NC(=O)N2CCc3ccccc32)cc1
    -2.6	14.4	8.3	3208	-40.8	-0.2	3.5
> CCC(=O)Nc1ccc(NC(=O)c2ccccc2Cl)nc1
    0.4	.	.	4652	-28.0	4.8	14.4
> CCOC(=O)C(C)n1cnc2c(nnn2-c2ccc(OC)cc2)c1=O (configuration not stated)
    4.2	8.9	6.8	11011	-12.1	12.4	3.5
> O=C(Nc1ccc(Cl)cc1Cl)c1cc2ccccc2o1
    2.5	-4.8	-2.0	3505	-48.9	6.3	3.3
> N#C/C(=C\c1cccnc1)c1ccccn1
    1.4	6.7	12.3	3615	-9.5	-9.8	6.3
> COCCCn1c(-c2ccc(OC)cc2)nc2c1c(=O)[nH]c(=O)n2Cc1ccccc1
    -1.6	-7.4	11.1	5229	-28.3	-5.9	0.9
> CC(C)n1cc(C=NNC(=O)COc2cccc3cccnc23)c2ccccc21
    8.0	1.5	2.4	.	.	-24.1	.
> CC(=O)Nc1ccc(SCC(=O)Nc2sccc2C#N)cc1
    1.8	11.1	3.7	4537	-4.4	5.4	1.5
> Cc1cc2ncn(S(=O)(=O)c3ccc(F)cc3)c2cc1C
    4.6	-1.2	0.5	3808	-24.7	-0.2	-14.5
> CCn1c(=O)c2c3c(sc2n2c(=S)[nH]nc12)CCC3
    -11.5	9.9	6.6	2456	-13.6	-1.1	9.0
> Cc1ccc(CNC(=O)c2ccc(S(=O)(=O)Nc3c(C)n(C)n(-c4ccccc4)c3=O)cc2)cc1
    4.6	-13.3	4.8	3417	3.9	13.7	-1.9
> Cc1ccc(NC(=O)CN(C)C(=O)Nc2ccc(C)cc2)cc1
    1.7	-10.6	3.6	5276	-19.9	5.2	-7.5
> Cc1ccc(-c2nc(CS(=O)(=O)CC(=O)NC3CCC(C)CC3)c(C)o2)cc1 (configuration not stated)
    3.1	0.9	-9.7	5436	-23.1	-2.0	10.4
> COc1cccc(N2CCN(C(=O)c3cc4c(OC)c(OC)c(OC)cc4[nH]3)CC2)c1
    7.0	-14.5	1.3	3253	-14.6	14.4	-5.9
> O=C(COc1ccccc1)Nc1cccc(-c2nn[nH]n2)c1
    1.4	-1.1	7.3	6200	-44.1	2.8	10.0
> O=[N+]([O-])c1cc(-c2ccccc2)cc([N+](=O)[O-])c1O
    69.6	16.0	4.7	2905	-20.2	66.7	.
> NC(=O)c1c(-c2cccs2)csc1N
    9.3	6.3	15.8	.	.	-8.0	0.8
> Nc1ccc2nc(-c3ccccc3)[nH]c2c1
    1.6	6.2	-1.6	3398	-53.5	-0.7	-13.0
> COc1cccc2c1C(=O)CC2NC(=O)C(F)(F)F (configuration not stated)
    -0.3	-2.7	-3.6	.	-10.1	-0.5	-0.6
> Cc1csc(=S)n1-c1ccccc1
    2.1	6.6	11.5	3386	0.6	0.2	-11.8
> CCc1ccc(-c2nc(C(N)=O)c3[nH]c(=O)n(-c4ccccc4OC)c3n2)cc1
    -0.1	-1.5	2.4	5650	-4.1	10.0	21.7
> COc1ccc2cc(C#N)c(Nc3cccc(F)c3)nc2c1
    .	.	.	3279	-18.3	.	1.0

Every second line gives: Sa RN4220 lethal	Mtb hypoxia inh	Mtb hypoxia inh growth	Bead autofluor	PrP UTR inh	Sa ugtP lethal	BJeLR viability
> O=c1c(=Cc2ccc(O)cc2)sc2nc(-c3ccccc3)c(-c3ccccc3)n12
    -11.1	2.1	0.2	.	.	-3.8	.
> O=c1oc2ccccc2c(=O)c2ccccc12
    3.4	22.8	30.6	3726	-16.7	1.7	.
> O=C(COc1ccccc1-c1ccccc1)NN=Cc1ccccn1
    -0.8	-4.3	5.5	.	.	1.8	.
> O=C(NCC1CCCO1)c1cccc(S(=O)(=O)Nc2ccc(F)cc2)c1 (configuration not stated)
    2.1	9.3	4.4	3888	-16.7	-1.0	.
> O=C(O/N=C(\c1ccccc1)c1ccccn1)c1ccc(Cl)c(Cl)c1
    .	.	.	3089	-7.5	.	-6.9
> O=c1c(Cl)c(NCCO)ncn1-c1ccccc1
    -0.9	-0.8	-6.0	7799	1.1	-0.7	-3.3
> CN(C(=O)COC(=O)CNC(=O)c1ccccc1Cl)c1ccccc1
    14.0	10.8	6.6	4117	-8.2	6.2	-20.4
> CCC(C)(C)NC(=O)/C=C/c1cnc2ccccc2n1
    4.6	6.6	2.2	2373	-33.2	3.0	3.9
> CC(OC(=O)c1cc[n+]([O-])cc1)C(=O)Nc1ccc(Cl)cn1 (configuration not stated)
    6.9	3.4	-1.8	3036	-22.6	0.1	-4.0
> NS(=O)(=O)c1ccc(CNc2ncnc3sccc23)cc1
    5.2	13.5	-1.3	5033	-13.4	-1.5	-3.2
> COc1ccccc1C(=O)N(Cc1nc(-c2ccc(Cl)cc2)no1)C(C)C
    4.8	.	.	5952	-2.2	2.1	-0.5
> Cc1ccc(C(=O)Nc2ccccc2N2CCCCC2)cc1
    -5.2	7.5	-5.3	3964	-18.8	24.6	-3.9
> Cc1ccc2c(CN3C(=O)NC4(CCCCC4)C3=O)cc(=O)oc2c1C
    -1.5	-8.4	-0.5	12057	-17.9	-4.9	-0.3
> CCN1/C(=C2/SC(=S)N(NC(C)=O)C2=O)Sc2ccccc21
    5.1	-4.1	0.0	4065	-7.1	9.1	-2.3
> Cc1nn(CC(=O)NC2CCS(=O)(=O)C2)c(C)c1[N+](=O)[O-] (configuration not stated)
    -0.1	-1.1	6.1	3903	-1.1	0.3	.
> Cc1ccccc1OCC(=O)N/N=C/c1c(C)nn(-c2ccccc2)c1Cl
    .	.	.	2163	-26.4	.	3.1
> CCOC(=O)C1=C(N)Oc2cc(O)ccc2C1c1cccc(Cl)c1 (configuration not stated)
    -16.0	17.2	-4.9	.	-27.5	8.8	-8.0
> CCOc1ccccc1C1CC(c2cccs2)=NN1S(C)(=O)=O (configuration not stated)
    4.0	12.2	-4.9	5218	-5.5	-0.5	-1.4
> O=C(NCCC1=CCCCC1)C1CCN(c2nnc(-n3cccc3)s2)CC1
    0.3	-2.8	-11.1	5288	2.8	7.3	-6.7
> Cc1cc(O)ccc1Nc1nc(-c2cccnc2)cs1
    0.7	2.6	4.2	2966	-69.7	-8.5	-0.9
> Cc1cc(C(=O)NNC(=O)C(C)NS(=O)(=O)c2ccccc2F)c(C)o1 (configuration not stated)
    6.4	7.3	8.1	.	.	7.9	.
> COc1cc2sc(C)nc2cc1C
    1.5	-2.7	2.9	4274	-6.1	-6.3	8.9
> O=c1[nH]c(SCc2ccccc2)nc2c1sc1ccccc12
    6.2	4.2	1.6	4900	-6.4	0.2	-7.5
> O=C(Nc1ccccn1)c1ccc(S(=O)(=O)N2CCCC2)cc1
    2.0	-3.2	2.0	6757	-3.0	3.5	11.0
> Cc1cc(C)nc(NS(=O)(=O)c2ccccc2)n1
    -1.1	8.9	2.4	7067	-10.1	14.5	-5.7
> c1ccc(OCc2nc(-c3ccncc3)no2)cc1
    5.0	-5.0	6.3	4306	-42.9	7.4	-1.0
> COC(=O)c1cc(OC)c(OC)cc1NCC(=O)Nc1ccc(OC)c(OC)c1
    -2.1	4.5	0.6	2291	-4.5	9.8	9.2
> O=c1c2sccc2nc(SCc2cc(=O)n3cc(Cl)ccc3n2)n1-c1ccc(F)cc1
    1.6	-5.9	5.2	10767	-14.7	-7.4	3.8
> Cc1cccn2c(=O)c3cc(S(=O)(=O)c4ccccc4)c(=N)n(Cc4ccc(F)cc4)c3nc12
    0.9	1.2	5.2	4956	-9.6	6.0	-10.1
> CCOc1ccccc1C1NC(=O)c2ccccc2O1 (configuration not stated)
    -2.4	-1.1	6.1	4041	-13.9	3.2	-2.3

Ordered by molar mass (high to low): some entries from above
Every second line gives: Sa RN4220 lethal	Mtb hypoxia inh	Mtb hypoxia inh growth	Bead autofluor	PrP UTR inh	Sa ugtP lethal	BJeLR viability
> O=C(NCCC1=CCCCC1)C1CCN(c2nnc(-n3cccc3)s2)CC1
    0.3	-2.8	-11.1	5288	2.8	7.3	-6.7
> O=C(Nc1ccccn1)c1ccc(S(=O)(=O)N2CCCC2)cc1
    2.0	-3.2	2.0	6757	-3.0	3.5	11.0
> O=c1c(Cl)c(NCCO)ncn1-c1ccccc1
    -0.9	-0.8	-6.0	7799	1.1	-0.7	-3.3
> Cc1cc(C)nc(NS(=O)(=O)c2ccccc2)n1
    -1.1	8.9	2.4	7067	-10.1	14.5	-5.7

Further compounds follow:
Every second line gives: Sa RN4220 lethal	Mtb hypoxia inh	Mtb hypoxia inh growth	Bead autofluor	PrP UTR inh	Sa ugtP lethal	BJeLR viability
> CCc1nnc(NC(=O)CCC(=O)N2CCN(Cc3ccc(C)cc3C)CC2)s1
    4.5	-14.5	-10.8	5331	-3.2	-0.2	9.1
> CSCCC(NC(N)=O)C(=O)Nc1cccc(C#N)c1 (configuration not stated)
    2.3	4.0	0.0	4257	-26.6	-3.1	1.1
> CCc1ccc(OCc2n[nH]c(=S)n2Cc2ccccc2)cc1
    12.6	-3.1	1.5	2650	-27.0	-1.6	-4.1
> CC12CCC3C(CC=C4CC(O)CCC43C)C1C/C(=C\c1cccc(F)c1)C2=O (configuration not stated)
    3.7	4.3	7.8	1997	-10.8	12.3	-0.6
> O=C(c1ccc(CS(=O)Cc2ccc(Cl)cc2)o1)N1CCN(c2ccccc2F)CC1 (configuration not stated)
    -10.3	-2.9	4.8	3998	0.0	98.8*	-10.5
> C#Cc1ccc(CN2CCC(Oc3ccc(C(=O)NCc4ccccn4)cc3)CC2)cc1
    0.0	2.2	8.3	6454	-5.6	8.8	1.2
> CCC(C)NS(=O)(=O)c1ccc(NC(=O)c2c(-c3ccccc3)noc2C)cc1 (configuration not stated)
    -1.0	.	.	4363	-12.2	0.9	2.6
> CCOc1cc(CNCCCN2CCOCC2)cc(Br)c1OCC(=O)Nc1cccc(C(F)(F)F)c1
    -3.6	.	.	10465	-26.0	-17.0	5.4
